Six1-Eya2 blk = Six1/Eya2 interaction inhibition; AlphaScreen GST-Six1/His-Eya2 binding, biochemical; hits give low values; control for the full effect not named in the record; actives 0.56% (n = 360,000); activity change, % (test concentration not listed); in the data active = activity change below about -65%; inconclusive = about -30% to -65%; inactive = above about -30%; also: % is scaled to controls: 0 for no effect and ±100 for the full control effect; compound concentration not given in the record
Target sequence (O00167 whole entry, looked up): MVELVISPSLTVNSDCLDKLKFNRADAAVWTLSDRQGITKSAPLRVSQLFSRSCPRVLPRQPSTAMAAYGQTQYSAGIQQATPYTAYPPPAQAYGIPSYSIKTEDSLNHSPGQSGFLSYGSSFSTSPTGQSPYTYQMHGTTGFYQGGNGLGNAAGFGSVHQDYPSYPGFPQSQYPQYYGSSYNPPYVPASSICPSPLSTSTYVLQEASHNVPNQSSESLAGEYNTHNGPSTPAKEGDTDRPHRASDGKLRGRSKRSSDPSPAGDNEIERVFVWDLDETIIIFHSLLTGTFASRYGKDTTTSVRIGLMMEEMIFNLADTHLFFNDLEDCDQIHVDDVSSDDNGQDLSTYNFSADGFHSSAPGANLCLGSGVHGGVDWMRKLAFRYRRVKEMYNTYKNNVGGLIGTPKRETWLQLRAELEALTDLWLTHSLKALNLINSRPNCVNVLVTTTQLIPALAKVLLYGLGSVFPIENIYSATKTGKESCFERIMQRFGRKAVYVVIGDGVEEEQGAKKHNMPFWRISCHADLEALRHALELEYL
Target sequence (Q15475 whole entry, looked up): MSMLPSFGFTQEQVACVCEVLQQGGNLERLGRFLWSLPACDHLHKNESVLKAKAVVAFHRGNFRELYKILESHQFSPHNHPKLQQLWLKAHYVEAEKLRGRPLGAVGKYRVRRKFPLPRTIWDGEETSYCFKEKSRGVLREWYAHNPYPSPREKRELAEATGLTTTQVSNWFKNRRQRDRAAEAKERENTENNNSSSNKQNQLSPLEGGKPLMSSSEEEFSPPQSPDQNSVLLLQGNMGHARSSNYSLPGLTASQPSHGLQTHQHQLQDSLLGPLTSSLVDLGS
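AlphaScreen with GST-Six1 and His-Eya2 (5X mix: 250 nM and 500 nM), glutathione donor and nickel acceptor beads; buffer 50 mM Tris pH 8.0, 300 mM NaCl, 1 mM TCEP; 1 h at 37 C in the dark.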
D2 ag = activates the human D2 dopamine receptor. activation, % (concentration not given with the values). DiscoveRx PathHunter D2 beta-arrestin, luminescence, 90 min; 100% = 57 uM dopamine signal. actives 0.084% (n = 360,000); in the data active = activation above about 40%; inconclusive = about 15% to 40%; inactive = below about 15%; also: compound concentration not given in the record; the text of the record calls up to 30% inactive
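Agonist mode: compounds alone added to overnight-plated D2 PathHunter cells for 90 min at 37 C, with 57 uM final dopamine (EC100) defining full response. Beta-arrestin recruitment detected by chemiluminescent reagent, read after 1 h at ambient temperature.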
TRPML1 inh = human mucolipin-1 channel inhibition | Q9GZU1 | TRPML1-inducible cells, Ca2+ dye fluorescence, FDSS; hits give low values; inhibition of EC80 agonist-evoked calcium signal | activity change, negative = inhibition, % (concentration not given with the values) | actives 0.02% (n = 390,000); in the data active means activity change below about -50%; inconclusive means about -30% to -50%; inactive means above about -30%;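 also: stimulus is agonist 54-4 at its EC80 concentration; % is scaled to controls: 0 for no effect and ±100 for the full control effect; compound concentration not given in the record; the text of the record puts the active cut at -80%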
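TRPML1-DL cells, Tet-induced overnight (~16 h, 37 °C) at 1,500 cells/well, were loaded with Ca8 no-wash dye plus quencher for 45-90 min at room temperature. Compounds were pinned during FDSS kinetic reading; agonist 54-4 at EC80 (4 uM final) then added.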
TRPML1 agonist = human mucolipin-1 channel agonism | TRPML1-expressing cells, Ca2+ dye fluorescence, FDSS; host cell line not named in the record; reference of the full effect not given here | activation, % (test concentration not listed) | actives 0.12% (n = 410,000) | AID 624414; in the data active = activation above about 50%; inconclusive = about 30% to 50%; inactive = below about 30%; also: 0% is about no effect; the text of the record puts the active cut at 80%
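Tetracycline-induced TRPML1-DL cells are seeded and incubated overnight before loading with a no-wash Ca2+ dye and quencher. Agonist activity is taken from the 110 s fluorescence read following compound pin-transfer on an FDSS, before EC80 54-4 challenge.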
D2 potentiator = positive allosteric modulators of human D2 dopamine receptor. potentiation, % (test concentration not listed). DiscoveRx D2 beta-arrestin cells, luminescence, 90 min; 100% = 57 uM dopamine signal. actives 0.23% (n = 360,000); active = potentiation of 50% or more; inconclusive = 30% to 50%; inactive = 30% or less;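 also: compound concentration not given in the record; tested on top of an EC20 dose of dopamine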
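D2 cells co-treated with compound plus 50 nM dopamine (EC20) for 90 min at 37 deg C to detect potentiation. Beta-arrestin recruitment was read as enzyme-fragment luminescence after 1 h at ambient temperature. Full response was set by 57 uM dopamine.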
PINK1 modulator = changes PINK1 expression; PINK1 immunofluorescence, high-content cytometry, 24 h; Potency, µM (series often up to 76.6 µM), for inactives: top-dose activation (PINK1 increase), actives largely listed as activators; actives 0.2% (n = 410,000); AID 624263; active = well fitted activation curve with a large enough effect; inconclusive = small, poorly fitted or top-dose-only effect; inactive = flat fitted curve, though single readings scatter; cell line not stated here;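 also: potency is read from the fitted curve at half-maximal effect; % of control where 0% means no effect; nearly all actives have a fitted effect of over 65% in size; a mitochondrial uncoupler was the plate control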
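Stable cell line, 250 cells/well, 12 h attachment; compounds pinned at 5 concentrations, 24 h; CCCP control. Fixed with nuclear dye, primary antibodies 12 h at 10 degrees C, secondary plus cell stain; laser-scanning cytometer read.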
Numbers without * were called inactive; ? = inconclusive; / = no result given; & = joins results of further samples; [ ] = another dose, or the depositor's remark.

nr	SMILES	PINK1 modulator	D2 potentiator	D2 ag	Six1-Eya2 blk	TRPML1 inh	TRPML1 agonist
1	COc1ccc(/C(C)=N/NC(=O)CNC(=O)c2ccco2)c(OC)c1	1.4%	-6	-0.2	0	7	-0.7
2	O=C1CN(C(=O)COc2c(Cl)cccc2Cl)c2ccccc2N1	1.0%	-29	-2.6	1	20	0.8
3	CCOC(=O)c1sc2cccc(F)c2c1S(=O)(=O)NCc1ccccc1Cl	-0.1%	/	/	/	-11	2.4
4	Clc1ccc(CN2C3=NCCCN3c3ccccc32)cc1	-0.4%	-6	-9.6	-7	-3	0.8
5	CC(=O)Nc1cccc(Nc2nc(-c3ccccc3)nc3ccccc23)c1	3.2%	-1	-2.3	3	4	1.1
6	Cc1ccn2cc(-c3cccc(NC(=O)c4cccs4)c3)nc2c1	-0.9%	1	3.3	-15	-13	-0.1
7	NS(=O)(=O)c1ccc(CCNC(=O)c2ccccc2Cc2ccccc2)cc1	-0.1%	-17	-0.3	-2	11	-0.8
8	CN(c1ccc(OCC(=O)OCC(=O)Nc2ccccc2F)cc1)S(=O)(=O)c1cccs1	14%	-5	-8.7	14	2	3.0

Two entries from above, with values under each structure:
Order of results: PINK1 modulator	D2 potentiator	D2 ag	Six1-Eya2 blk	TRPML1 inh	TRPML1 agonist
(8) CN(c1ccc(OCC(=O)OCC(=O)Nc2ccccc2F)cc1)S(=O)(=O)c1cccs1
  14%	-5	-8.7	14	2	3.0
(7) NS(=O)(=O)c1ccc(CCNC(=O)c2ccccc2Cc2ccccc2)cc1
  -0.1%	-17	-0.3	-2	11	-0.8

Six entries already listed, ordered by their value in Six1-Eya2 blk, ascending:
nr | SMILES | Six1-Eya2 blk
6 | Cc1ccn2cc(-c3cccc(NC(=O)c4cccs4)c3)nc2c1 | -15
4 | Clc1ccc(CN2C3=NCCCN3c3ccccc32)cc1 | -7
1 | COc1ccc(/C(C)=N/NC(=O)CNC(=O)c2ccco2)c(OC)c1 | 0
2 | O=C1CN(C(=O)COc2c(Cl)cccc2Cl)c2ccccc2N1 | 1
5 | CC(=O)Nc1cccc(Nc2nc(-c3ccccc3)nc3ccccc23)c1 | 3
8 | CN(c1ccc(OCC(=O)OCC(=O)Nc2ccccc2F)cc1)S(=O)(=O)c1cccs1 | 14

Next section
nr	SMILES	PINK1 modulator	D2 potentiator	D2 ag	Six1-Eya2 blk	TRPML1 inh	TRPML1 agonist
9	O=C(Nc1ccccc1Oc1ccsc1C(=O)O)c1ccccc1	1.9%	-5	1.2	3	17	1.7
10	CN(CC(=O)Nc1ccc(F)cc1)C(=O)CCc1nc2sc3c(c2c(=O)[nH]1)CCCC3	8.6%	-16	-2.0	0	-9	-0.3
11	COc1ccc(CCNC(=O)C2c3ccccc3C(=O)N2Cc2ccccc2)cc1OC (configuration not stated)	1.3%	/	/	/	9	-0.3
12	CCOc1ccc(S(=O)(=O)N/N=C\c2ccc3c(c2)OCO3)cc1	-1.4%	-10	-2.3	14	-9	-0.4
13	CCC(C)NC(=O)CSc1nnc(-c2ccc(OC)c(OC)c2)c(-c2ccc(OC)c(OC)c2)n1 (configuration not stated)	5.5%	1	6.4	0	35	-0.5
14	CCOCCCNS(=O)(=O)c1ccc2c(c1)oc(=O)n2CC(=O)OCC	5.3%[38.3 µM]	0	-1.3	0	7	0.9
15	S=C(NCc1cccs1)Nc1cccc(Cl)c1	?	-8	0.4	1	-11	1.0
16	COc1ccccc1/C=C1\SC(=S)N(CCC(=O)N2CCCCC2CCO)C1=O (configuration not stated)	2.2%	-2	7.5	-6	10	0.9
17	Cc1ccc(N2CC(C(=O)Nc3ccc4c(c3)OCO4)CC2=O)cc1 (configuration not stated)	17%	3	-3.2	20	15	0.8
18	Fc1ccc2cnc(-c3cccnc3)cc2c1	0.7%	-7	1.1	-5	-3	-0.4
19	Cc1cn2c(=O)cc(COC(=O)c3cccc(NC(=O)c4ccccc4Cl)c3)nc2s1	-1.4%	/	/	/	1	2.8
20	COc1ccc(C(NC(=O)C2CCN(CCCOc3ccccc3)CC2)c2ccccn2)cc1 (configuration not stated)	-0.3%	-28	-6.6	-7	/	0.3
21	COc1ccccc1NC(=O)N1CCN(c2ccnc3cc(Cl)ccc23)CC1	-0.4%	2	7.4	-15	14	1.8
22	CN(CCO)c1ccc(C(C(=O)c2ccccc2)c2ccc(N(C)CCO)cc2)cc1	-0.7%	-10	-1.4	?	11	-0.1
23	O=C(c1cccc(F)c1)N1CCC(c2nc3ccccc3s2)CC1	-0.7%	-3	-4.6	-1	-1	0.2
24	CCOC(=O)c1[nH]c(CO)c(C(=O)OCC)c1C	0.8%	0	1.9	11	-2	0.4
25	C[C@H](CO)N1C[C@H](C)[C@@H](CN(C)S(=O)(=O)c2ccccc2C#N)OCc2cnnn2CCCC1=O	2.3%	5	-1.3	5	1	1.0
26	Nc1nc2ccc(S(=O)(=O)N3CCCCC3)cc2s1	4.9%	2	1.2	-12	12	-0.6
27	CCc1ccc(N(CC(=O)Nc2ccccc2C(=O)N2CCCC2)S(C)(=O)=O)cc1	-0.2%	18	-1.3	10	36	0.0
28	CC(C)n1c(COc2ccccc2)nc2ccccc21	5.7%	-2	1.2	4	19	1.7
29	COc1ccc(CNc2n[nH]c(-c3ccco3)n2)cc1OC	-0.2%	/	/	/	2	-0.9
30	Cc1cn([C@H]2C[C@H](O)[C@@H](CCC(=O)NCCc3cnc[nH]3)O2)c(=O)[nH]c1=O	-0.5%	/	-1.9	-7	-17	-0.5
31	CCCCn1nc(C(=O)Nc2ccccc2N2CCCC2)c2ccccc2c1=O	5.7%	-12	0.4	?	-12	0.6
32	CCOc1ccc(N2C(=O)CC(NC3CCN(C(=O)c4ccc(F)cc4)CC3)C2=O)cc1 (configuration not stated)	2.0%	13	-1.5	0	-3	-0.2
33	O=[N+]([O-])/C(C(=C(Cl)Cl)N1CCN(Cc2ccccc2)CC1)=C1\NCCN1Cc1ccc(Cl)nc1	-1.3%	-10	-3.0	2	-3	1.9
34	Cc1cc(C(=O)Nc2nnc(C(F)(F)F)s2)no1	-1.1%[38.3 µM]	-10	-1.7	4	-11	-0.1
35	COc1ccc(CCNC(=O)CNS(=O)(=O)c2ccc(Br)cc2)cc1	-2.0%	2	0.9	-1	30	2.3
36	Cc1cc(C)n(-c2ccc(C(=O)Nc3ccc4c(c3)OCCO4)cc2)n1	0.7%	22	3.9	-8	32	-1.7
37	O=C1OCCN1c1c(-c2ccccc2)c(N2CCOCC2)nc2ccccc12	1.0%	-1	-6.2	3	-7	-0.6
38	O=C(COc1ccccc1Cl)Nc1nnc(S(=O)(=O)N2CCCC2)s1	2.0%&2.2%	-1	-1.7	0	1&-3	0.3&2.1
39	Cc1nn(CCCC(=O)NCCc2ccccc2)c(=O)c2nn(-c3ccccc3)c(C)c12	0.0%	-9	1.4	-1	?	1.1
40	CC1=NN(c2ccccc2)C(=O)/C1=C\N1CC(C)OC(C)C1 (configuration not stated)	-4.3%	-7	-2.5	-2	4	0.5
41	CCc1ccc(-n2nc(C)c3c(C(=O)N4CCN(c5cccc(Cl)c5)CC4)cc(C)nc32)cc1	2.6%	/	/	/	-21	-0.2
42	CCc1cccc(NC(=O)CCC(=O)O)c1	-2.0%	-7	-0.8	14	-12	0.6
43	Cc1ccc(F)cc1NC(=O)CSc1ncccn1	0.1%	-2	?	8	5	-0.7
44	COc1ccc(C(=O)N2CCN=C2c2ccccc2)cc1OC	-1.2%	-23	-1.3	4	46	0.2
45	Cc1nnc(N2CCN(c3cccc(Cl)c3)CC2)c2c1nnn2Cc1ccc(F)cc1	-2.9%	/	/	/	1	-0.7
46	O=C(N/N=C/c1ccccn1)c1cccc(S(=O)(=O)Nc2ccccc2Cl)c1	-0.6%	10	-12	-86*	-20	-0.9
47	CCOc1ccc(S(=O)(=O)N(CC(=O)N/N=C/c2cccs2)c2ccc(C)cc2)cc1	0.7%[38.3 µM]	-9	0.0	-7	1	1.9
48	Cc1ccccc1OCC(=O)OCC(=O)NCCNC(=O)COC(=O)COc1ccccc1C	2.0%	-13	1.8	17	-5	0.0

Six1-Eya2 blk, hit marks shown above.
| No. | SMILES | PINK1 modulator | D2 potentiator | D2 ag | Six1-Eya2 blk | TRPML1 inh |
| --- | --- | --- | --- | --- | --- | --- |
| 46 | O=C(N/N=C/c1ccccn1)c1cccc(S(=O)(=O)Nc2ccccc2Cl)c1 | -0.6% | 10 | -12 | -86* | -20 |

(cont.)
nr	SMILES	PINK1 modulator	D2 potentiator	D2 ag	Six1-Eya2 blk	TRPML1 inh	TRPML1 agonist
49	CCN(CC)C(=O)CSc1nc(C)cc(C)c1C#N	0.4%	-3	-2.4	10	32	0.7
50	CCc1cc2c(N3CCCCC3)ncnc2s1	-2.3%	-2	-0.2	5	4	1.8
51	COc1cccc(C(O)c2ncc(-c3ccc4ccccc4c3)[nH]2)c1 (configuration not stated)	2.6%	0	-2.4	-26	/	0.1
52	Cc1ccc(SCC(=O)Nc2ccc(-c3nc4ccccc4[nH]3)cc2)cc1	?	29	7.8	2	51	0.1
53	Cc1ccc(-c2ccc(NC(=O)C3C4C=CC(C4)C3C(=O)O)cc2)o1 (configuration not stated)	-0.8%	-9	-0.8	-11	-6	1.6

Arranged by molecular weight (smallest number first): part of the list above
nr	SMILES	PINK1 modulator	D2 potentiator	D2 ag	Six1-Eya2 blk	TRPML1 inh	TRPML1 agonist
49	CCN(CC)C(=O)CSc1nc(C)cc(C)c1C#N	0.4%	-3	-2.4	10	32	0.7
52	Cc1ccc(SCC(=O)Nc2ccc(-c3nc4ccccc4[nH]3)cc2)cc1	?	29	7.8	2	51	0.1
47	CCOc1ccc(S(=O)(=O)N(CC(=O)N/N=C/c2cccs2)c2ccc(C)cc2)cc1	0.7%[38.3 µM]	-9	0.0	-7	1	1.9
48	Cc1ccccc1OCC(=O)OCC(=O)NCCNC(=O)COC(=O)COc1ccccc1C	2.0%	-13	1.8	17	-5	0.0

High-throughput results (PubChem)
